# ClpP mod = qHTS Assay for Activators of ClpP. ATP-dependent Clp protease proteolytic subunit (Bacillus subtilis (strain 168)), P80244. Potency, µM (series often up to 57.5 µM), inactives show top-dose activity change, negative = active. 1.9% of 340,000 active. purified B. subtilis ClpP, FRET peptide cleavage, 20 min; active = well fitted falling curve with a large enough effect; inconclusive = small, poorly fitted or top-dose-only effect; inactive = no such curve, though single readings can be large or run the other way; note: potency is the fitted concentration of half-maximal effect; the source files actives as falling curves though it sought activators and does not explain the sign; nearly all actives have a fitted effect of over 65% in size; many hits overshoot -100%
# Target sequence (P80244 whole entry, looked up): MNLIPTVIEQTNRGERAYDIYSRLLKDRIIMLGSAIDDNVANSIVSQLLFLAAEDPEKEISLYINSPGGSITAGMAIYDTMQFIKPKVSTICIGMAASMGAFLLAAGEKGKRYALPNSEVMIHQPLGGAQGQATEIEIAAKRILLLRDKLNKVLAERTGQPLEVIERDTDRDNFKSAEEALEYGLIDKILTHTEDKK
#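 Purified B. subtilis ClpP, 10 microg/mL final in Tris/HCl pH8 with KCl, BSA, glycerol and Tween-20, cleaved an Abz/nitrotyrosine-quenched decapeptide. Fluorescence (ex 320, em 430) was read at 0 and 20 min at room temperature. Delta was normalized to 5.8 microM ADEP and DMSO/no-enzyme controls.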
# TRPV1 PAM = potentiators of human vanilloid receptor 1 (TRPV1); TRPV1-expressing cells, Fluo-8 calcium influx, capsaicin EC20 potentiation; host cell line not named in the record; control for the full effect not named in the record; Q8NER1; potentiation, % at 8.33 µM; 0.02% of 320,000 active; active means potentiation above 80%; inconclusive means 30% to 80%; inactive means below 30%; note: 0% is about no effect
# Target sequence (Q8NER1 whole entry, looked up): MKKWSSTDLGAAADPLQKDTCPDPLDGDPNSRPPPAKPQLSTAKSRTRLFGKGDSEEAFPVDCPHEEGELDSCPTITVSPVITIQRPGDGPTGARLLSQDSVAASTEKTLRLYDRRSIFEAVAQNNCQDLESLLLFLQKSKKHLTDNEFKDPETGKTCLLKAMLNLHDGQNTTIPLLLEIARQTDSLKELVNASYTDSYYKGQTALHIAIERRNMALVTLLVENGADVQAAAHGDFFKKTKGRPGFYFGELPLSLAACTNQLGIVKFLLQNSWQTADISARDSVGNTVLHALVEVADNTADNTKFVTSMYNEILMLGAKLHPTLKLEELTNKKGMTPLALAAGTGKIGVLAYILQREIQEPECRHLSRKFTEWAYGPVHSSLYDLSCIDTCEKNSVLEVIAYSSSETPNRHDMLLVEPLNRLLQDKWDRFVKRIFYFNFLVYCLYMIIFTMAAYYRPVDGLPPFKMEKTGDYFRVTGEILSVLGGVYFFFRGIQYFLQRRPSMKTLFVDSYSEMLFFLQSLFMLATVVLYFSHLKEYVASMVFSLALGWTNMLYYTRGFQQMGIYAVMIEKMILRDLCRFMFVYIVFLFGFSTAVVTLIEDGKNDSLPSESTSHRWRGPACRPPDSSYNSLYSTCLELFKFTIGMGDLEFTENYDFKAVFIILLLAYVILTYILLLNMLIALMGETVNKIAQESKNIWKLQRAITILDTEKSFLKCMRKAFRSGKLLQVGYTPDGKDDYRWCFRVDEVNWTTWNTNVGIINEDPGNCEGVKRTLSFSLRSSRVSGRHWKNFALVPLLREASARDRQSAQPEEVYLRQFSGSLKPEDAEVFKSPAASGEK
#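 Cells expressing TRPV1 were dye-loaded with Fluo-8 and read kinetically: 10 s baseline, 3 min after compound (agonist portion), then 2 min after EC20 capsaicin (allosteric enhancer portion). Calcium-bound dye fluorescence at 480/520 nm.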
# TRPML1 ag = agonists of human TRPML1 channel | TRPML1-expressing cells, Ca2+ dye fluorescence, FDSS; host cell line not named in the record; reference of the full effect not given here | 0.12% of 410,000 active | activation, % (no concentration beside the values) | Q9GZU1; in the data active = activation above about 50%; inconclusive = about 30% to 50%; inactive = below about 30%; note: 0% is about no effect; the text of the record puts the active cut at 80%
#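 Tetracycline-induced TRPML1-DL cells are seeded and incubated overnight before loading with a no-wash Ca2+ dye and quencher. Agonist activity is taken from the 110 s fluorescence read following compound pin-transfer on an FDSS, before EC80 54-4 challenge.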
# TRPML1 inh = human mucolipin-1 channel inhibition | Q9GZU1 | 0.02% of 390,000 active | activity change, negative = inhibition, % (no concentration beside the values) | TRPML1-inducible cells, Ca2+ dye fluorescence, FDSS; hits give low values; inhibition of EC80 agonist-evoked calcium signal; in the data active means activity change below about -50%; inconclusive means about -30% to -50%; inactive means above about -30%;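 note: stimulus is agonist 54-4 at its EC80 concentration; % is set by controls: 0 for no effect and ±100 for the full control effect; compound concentration not given in the record; the text of the record puts the active cut at -80%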
#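 Tet-induced TRPML1-DL cells loaded with Ca8 no-wash calcium dye were read kinetically on FDSS. Compound addition was followed by EC80 agonist 54-4 (4 uM final); inhibition was read over 110 s.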
# Sfp PPTase inh = blocks B. subtilis Sfp PPTase activity | Biochemical Sfp PPTase activity, qHTS | Potency, µM, inactives show max response, negative = inhibition, usual class: inhibitors | 3.5% of 310,000 active | AID 1490; active = well fitted inhibition curve with a large enough effect; inconclusive = small, poorly fitted or top-dose-only effect, or another doubt; inactive = no such curve, though single readings can be large or run the other way;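 note: the enzyme is Sfp with the accession as filed and its product quenches rhodamine fluorescence; potency is the fitted concentration of half-maximal effect; 0% = enzyme reaction without inhibitor and -100% = no enzyme wells; top concentration of the series not given in the record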
#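 Sfp 15 nM + cpd, 15 min RT; start w/ rhodamine-CoA 5 uM, BHQ-2-YbbR 12.5 uM (final); 50 mM Hepes pH 7.6, 10 mM MgCl2, 0.01% NP-40, 0.01% BSA; read 525/598 nm at 0 and 30 min.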
# PINK1 expr mod = modulators of PINK1 expression; Potency, µM (doses to about 76.6 µM), inactives show at the highest dose activation (PINK1 increase), actives largely listed as activators; PINK1 immunofluorescence, high-content cytometry, 24 h; 0.2% of 410,000 active; active = well fitted activation curve with a large enough effect; inconclusive = small, poorly fitted or top-dose-only effect; inactive = flat fitted curve, though single readings scatter; cell line not stated here;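 note: potency is the fitted concentration of half-maximal effect; % of control where 0% means no effect; nearly all actives have a fitted effect of over 65% in size; a mitochondrial uncoupler was the plate control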
#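 Decision-based qHTS: stable cells, 24 h exposure to five compound concentrations, CCCP as control. Fixed cells stained for PINK1 plus nuclear, mitochondrial and cell markers, cytometer read.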
# Menin-MLL FL inh = inhibitors of human menin-MLL interaction, wild-type MLL peptide | 290,000 tested, under 10 active | Fluorescence polarization, fluorescein-MLL peptide displacement from menin | FP activity change, % at 61.4 µM; inconclusive = falling polarisation curve, or a change in total fluorescence; inactive = total fluorescence flat and polarisation flat or rising; no compound was filed as active; the % refers to the polarisation; negative = inhibition;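 note: % of control where 0% means no effect; inhibitors lower the polarisation; unlabelled MLL peptide was the positive control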
# The depositor's hits bear a star; ? = inconclusive; · = no result given; & = joins results of further samples; [ ] = remark or other dose.
SMILES,ClpP mod,TRPV1 PAM,TRPML1 ag,TRPML1 inh,Sfp PPTase inh,PINK1 expr mod,Menin-MLL FL inh
CC(Cc1ccccc1)NC(=O)C1(c2ccccc2)CCOCC1 (stereo not given),-1.4%,1,0.2,4,7%,0.7%,-0.9
O=C1CCC(c2ccccc2)=NN1,0.6%,7,-0.7,-6,17%,-0.3%,3.7
COc1ccc(CNC(=O)CSc2c3c(nc4ccc(Cl)cc24)CCCC3)cc1,-0.8%,·,0.1,16,·,-0.5%,·
O=C(Cn1ncc2ccsc2c1=O)N1CCN(c2ccc(Cl)cc2)CC1,-1.9%,·,0.5,20,·,1.9%,·
COc1ccc(CCNC(=O)CSc2ccc3nnc(CCNC(=O)c4ccc(C)cc4)n3n2)cc1OC,-2.8%,·,0.0,-1,·,0.9%,·
Cc1ccc(S(=O)(=O)N2CCC(O)(c3cccnc3)CC2)cc1,-0.8%,-10,0.5,-8,6%,?,0.9
CN(CC1CCOCC1)C(=O)CC1C(=O)NCCN1Cc1cccc(Oc2ccccc2)c1 (stereo not given),-5.0%,8,0.2,-13,2%,2.9%,-3.6
Cc1cccc(-c2nc(C#N)c(N3CCCCCC3)o2)c1,?,7,2.9,59,-14%,-3.1%[38.3 µM],1.7
CC1=C(C(N)=O)C(c2ccc(Cl)cc2)n2nc(CCCO)nc2N1 (stereo not given),-0.4%,-1,1.9,24,4%,-3.3%,1.0
COc1cccc(CNC(=O)CCc2nnc(C3CCCCC3)o2)c1,·,-9,-0.3,-10,-10%,0.2%,5.4
COc1cc(-c2nc(CN(C)C(C)c3ccncn3)c(C)o2)ccc1F (stereo not given),·,2,-0.6,6,-10%,0.0%,-3.5
CC/C(=N\NC(C)=O)c1ccc(OC(F)F)cc1,·,-5,·,·,25%,·,0.3
O=C(CN(c1cccc(C(F)(F)F)c1)S(=O)(=O)c1ccccc1)Nc1cccc(Cl)c1,-4.0%,·,2.9,19,·,?,·
Cc1ccccc1-c1nnc(SCC(=O)N(C)c2c(N)n(Cc3ccccc3)c(=O)[nH]c2=O)n1C,-0.3%,9,-0.3,-19,·,0.5%,·
O=C(c1ccc(Cl)cc1)N1CCN(c2cccc3[nH]ccc23)CC1,0.0%,-3,-0.8,-1,1%,3.4%,-1.6
O=C(Cc1csc(NC(=O)c2ccccc2)n1)NO,-0.1%,-5,·,·,3%,1.8%,-1.4
COc1cc(NC(=O)c2cccs2)c(C(=O)OCC(=O)c2cc(C)n(-c3ccccc3)c2C)cc1OC,?,3,0.0,2,-17%,4.2%,4.2
O=c1oc2ccc(Cl)cc2cc1-c1cn2c(n1)sc1ccccc12,-8.2%,·,1.7,-2,·,0.0%,·
Nc1cc(Cl)ccc1C(=O)OCC(=O)NCc1cccs1,4.6%,·,0.8,9,·,0.9%,·
CC(C)CC(=O)CC1(O)C(=O)Nc2ccccc21 (stereo not given),1.4%,-5,-0.5,-10,9%,2.8%,0.1
O=C(COC(=O)Cc1ccccc1F)Nc1ccc2c(c1)OCO2,-0.8%,-9,2.1,-9,8%,-1.6%,-7.3
COc1cccc(CNC(=O)Cn2nc(-c3ccc(Cl)cc3)ccc2=O)c1,-9.1%&-2.4%,-11,1.2&0.1,53&-12,8%,-5.2%,-0.3
Cc1cccn2c(CNCCCOc3cccnc3)c(C(=O)N3CCOCC3)nc12,-0.5%,9,-1.3,-13,-10%,-1.1%,-0.7
COc1ccc(C2C(CC(=O)O)=C(O)C(=O)N2c2ccccc2)cc1 (stereo not given),1.1%,-2,0.9,14,-3%,-0.4%,1.5
CCOc1ccc(-c2cc(CCCC(=O)NCc3ccco3)no2)cc1,2.2%,5,-0.5,4,10%,12%,1.3

# Following part
SMILES,ClpP mod,TRPV1 PAM,TRPML1 ag,TRPML1 inh,Sfp PPTase inh,PINK1 expr mod,Menin-MLL FL inh
O=C1CCCN1c1ccc(S(=O)(=O)NCc2ccc(F)cc2)cc1,-0.8%,8,-0.3,-10,0%,-0.5%,-0.9
CCN(CC(=O)Nc1ccc(NC(C)=O)cc1)C(=O)CN1C(=O)NC(C)(c2ccc3ccccc3c2)C1=O (stereo not given),-3.1%,·,-0.3,-11,·,-0.3%,·
CCOC(=O)C1CCCN(C(=O)c2cccc(S(=O)(=O)N(C)c3ccc(OC)cc3)c2)C1 (stereo not given),1.3%,-11,-1.2,-21,·,4.9%,·
Cc1ccccc1OCC(=O)Nc1ccc2c(c1)C(=O)c1ccccc1C2=O,-1.0%,21,4.3,35,-23%,-1.6%,3.7
CCCn1c(=O)c2sccc2n2c(CCCC(=O)Nc3ccc(Oc4ccccc4)cc3)nnc12,0.2%,·,1.7,3,·,1.4%,·
O=C(c1cc(Cl)nc2ccccc12)N1CCN(S(=O)(=O)c2ccccc2[N+](=O)[O-])CC1,-1.9%,4,1.5,11,12%,1.1%,·
COc1cccc(/C=C2\SC(=S)N(CCCC(=O)Nc3ccc(C(=O)O)cc3)C2=O)c1,1.4%,2,-0.5,7,-11%,1.1%,·
COC(=O)CSC(=S)N1C(C)CCCC1C (stereo not given),-0.3%,-7,-0.1,-14,11%,1.1%,-0.9
CCCCN(CC)C(=S)Nc1ccc2nc3n(c(=O)c2c1)CCCCC3,2.4%,22,0.1,8,10%,0.9%,6.8
CCc1ccc(/C=N/NC(=O)c2cc(C3CC3)nc3ccccc23)s1,7.3%,19,2.5,-13,12%,-0.1%,1.5
O=NN(Cc1cccnc1)C(=O)NC1CCCCC1,1.9%,·,-0.3,·,·,-0.2%,·
COc1cccc(CNC(=O)C2CCCN(S(=O)(=O)c3ccc4c(ccn4C)c3)C2)c1 (stereo not given),-7.7%,·,1.2,-10,·,-0.4%,·
CC1CN(C(=O)N2CCC(C(=O)NCc3cccs3)CC2)c2cc(Cl)ccc2O1 (stereo not given),-1.3%,·,-0.1,5,·,-1.8%,·
Cc1cc(C)n2c(SCc3ccc(C#N)cc3)nnc2n1,-6.0%,-23,0.5,-18,?,-1.1%,2.1
CCCCc1ccc(NC(=O)Cn2cnc3c(oc4ccccc43)c2=O)cc1,1.0%,·,-0.9,-13,·,0.0%,·
Cc1ccccc1C(=O)NCc1ccc2c(c1)CCN2C(=O)c1ccccc1,-2.7%,·,1.4,8,·,0.7%,·
NC(=O)CSc1nnc(C2CC2)n1Cc1ccccc1,1.6%,4,-0.3,-1,33%[activator],-0.1%,-0.8
Cn1cc(Cl)c(C(=O)NC2CCCCCC2)n1,-1.7%,-2,0.1,36,13%,-1.6%[38.3 µM],-0.4
COc1cccc2sc3cc(C#Cc4ccccn4)ccc3c(=O)c12,0.8%,·,-0.2,-4,·,3.3%,·
Cc1cc(NC(=O)CCC(=O)N(Cc2ccco2)C2(C(=O)NC3CCCC3)CCC(C)CC2)no1 (stereo not given),·,-7,-0.7,7,8%,-1.1%,-6.6
Cc1cc(C)c2nc(SCCC#N)nc(C)c2c1,-15%,-3,2.7,6,-5%,-0.8%,2.4
COc1ccc(N2CCN(c3nc(Cl)nc(Nc4ccc(F)cc4)n3)CC2)cc1,32%,8,0.2,77,-4%,1.9%,-2.2
Cc1ccccc1C(=O)N1CCC(C(=O)N(CC(C)C)c2c(N)n(CC(C)C)c(=O)[nH]c2=O)CC1,-3.1%,12,0.3,14,·,2.1%,·
CCC(C)NC(=O)c1ccc(C(=O)c2ccccc2)cc1 (stereo not given),-1.0%,-27,-0.1,-22,23%,1.7%,-1.0
COC(=O)C[C@H]1C[C@@H]2c3cc(NC(=O)Nc4ccc(F)cc4)ccc3O[C@@H]2[C@@H](CO)O1,-2.3%,·,1.3,18,·,2.1%,·

# (next part)
SMILES,ClpP mod,TRPV1 PAM,TRPML1 ag,TRPML1 inh,Sfp PPTase inh,PINK1 expr mod,Menin-MLL FL inh
CCn1c(COc2ccccc2)nc2ccccc21,0.0%,-14,1.6,-15,3%,1.4%,0.0
CCc1nn2c(=O)c(S(=O)(=O)Nc3cccc(F)c3)c(C)nc2s1,0.4%,-2,0.3&0.0,-5&-3,21%,-0.5%&-0.4%,0.9
C[C@@]12C(=O)N(Cc3ccc(-c4ccccc4)cc3)CC(=O)N1[C@H](/C=C/c1ccccc1)[C@@H]1C(=O)N(c3ccccc3)C(=O)[C@@H]12,-1.4%,13,0.1,10,14%,2.5%,2.8
COc1ccccc1N1CCN(C(c2ccccn2)c2nnnn2C2CCCCC2)CC1 (stereo not given),-3.4%,-9,-0.4,-3,7%,-0.3%,5.1
O=C1CCC[C@@H]2CC(N3CCCCC3)C[C@@H]3CCN1[C@H]23 (stereo not given in full),1.0%,·,0.0,-10,8%,-0.2%,-0.2[94.6 µM]
Cc1ccc(C(=O)OCC(=O)Nc2ncc(Cl)cc2Cl)cc1NC(=O)c1ccco1,-2.4%,6,-0.3,5,0%,4.3%[38.3 µM],-0.8
C=CCNC(=O)C1CCN(S(=O)(=O)c2ccc(Br)cc2)CC1,-1.8%,18,0.2,-19,-4%,2.7%,3.3
O=C1CC2(CCN(S(=O)(=O)c3ccccc3F)CC2)Oc2ccccc21,?,-13,1.3,-11,·,-1.1%,·
CCN(CC)S(=O)(=O)c1cccc(NC(=O)CNc2cccc(S(=O)(=O)N3CCCC3)c2)c1,-7.5%,4,0.9,-1,4%,0.9%,-0.7
CC1CCc2c(C(=O)Nc3ccc(OC(F)(F)F)cc3)csc2C1 (stereo not given),-2.2%,-16,1.8,-27,2%,14%,2.2
COc1ccc(Oc2ncc3nc(-c4cn(C)c5ccccc45)c(=O)n(C)c3n2)cc1,·,·,·,·,2%,-0.4%,2.3
COc1ccc(C(=O)C2=NN(C(C)=O)CC2c2ccco2)cc1 (stereo not given),·,0,0.6,5,10%,2.0%,-5.6
NC(=O)/C(=N\OC(=O)c1ccco1)c1nc(-c2ccc(Br)cc2)cs1,-5.0%,5,0.1,-6,9%,0.3%,7.0
Cc1ccc(NC(=O)c2ccccc2OCc2ccc([N+](=O)[O-])cc2)nc1,·,-3,-0.3,10,18%,7.1%,0.5
COc1cc(OC)cc(-c2c(-c3cccs3)c3cc(-c4ccc(OC)nc4)ccc3n2C)c1,2.9%,-7,-0.5,9,·,8.3%,·
CCC(=O)N(C1=C(NC)C(=O)c2ccccc2C1=O)C(C)C,-2.9%,3,0.3,10,13%,-1.4%,-0.1
